# High-throughput results (PubChem BioAssay)
# STAT3 binder – STAT3 binders, primary screen, biochemical, small molecule microarray, single point, set 2; His-STAT3 binding, anti-His fluorescence; calls only; 0.2% of 17,000 active;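 active means compounds whose four printed spots each show fluorescence over background unusually high for their array block, chance value under 7%; compounds were printed on slides so no solution concentration is given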;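 further: about 2 pmol printed per array spot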
# Target sequence (P40763 whole entry, looked up): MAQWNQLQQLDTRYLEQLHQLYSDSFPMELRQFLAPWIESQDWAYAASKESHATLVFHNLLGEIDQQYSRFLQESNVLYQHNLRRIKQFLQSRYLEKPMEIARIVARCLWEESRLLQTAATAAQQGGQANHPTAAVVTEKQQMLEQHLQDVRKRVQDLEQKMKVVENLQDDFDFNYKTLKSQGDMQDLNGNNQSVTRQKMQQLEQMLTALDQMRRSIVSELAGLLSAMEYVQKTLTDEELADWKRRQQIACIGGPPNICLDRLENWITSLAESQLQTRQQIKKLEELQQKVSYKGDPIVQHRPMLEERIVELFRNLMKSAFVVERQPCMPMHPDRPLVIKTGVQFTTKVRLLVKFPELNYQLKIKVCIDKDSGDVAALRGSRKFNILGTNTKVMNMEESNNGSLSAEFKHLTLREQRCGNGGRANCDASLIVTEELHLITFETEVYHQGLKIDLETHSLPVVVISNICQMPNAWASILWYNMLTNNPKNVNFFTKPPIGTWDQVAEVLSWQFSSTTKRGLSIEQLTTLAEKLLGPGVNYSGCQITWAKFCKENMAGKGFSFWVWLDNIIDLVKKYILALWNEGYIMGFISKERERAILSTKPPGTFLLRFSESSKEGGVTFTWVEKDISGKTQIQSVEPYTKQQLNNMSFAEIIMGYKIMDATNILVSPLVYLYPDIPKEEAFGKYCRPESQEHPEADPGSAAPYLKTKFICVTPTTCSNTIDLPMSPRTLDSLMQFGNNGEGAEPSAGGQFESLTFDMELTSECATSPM
# mut p53 SMM – binders of human mutant p53, primary screen, biochemical, small molecule microarray, anti-GST fluorescence | 0.4% of 17,000 active | mutant tumor protein p53 (GST-tagged), Homo sapiens | small molecule microarray binding | calls only;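 active means compounds whose four printed spots each glow above background more than chance allows, each with a p-value under 7%; compounds were printed on slides so no solution concentration is given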;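 further: about 2 pmol printed per array spot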
# Myc binder – binders of human c-Myc, primary screen, biochemical, small molecule microarray, anti-His fluorescence; Myc proto-oncogene protein (Homo sapiens), P01106; His-c-Myc binding; 1.5% of 17,000 active; calls only;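 active means spot fluorescence over background with P-value below 7% in all four replicate spots, showing protein binding; compounds were printed on slides so no solution concentration is given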;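 further: score is binary with 100 for all four spots passing and 0 otherwise; about 2 pmol printed per array spot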
# ID4 binder – binders of human ID4 protein, primary screen, biochemical, small molecule microarray, single point; AID 624137, 2012; DNA-binding protein inhibitor ID-4 (Homo sapiens), P47928; 1.2% of 31,000 active; calls only; Flag-ID4 binding, fluorescence F/B;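 active means spot signal over background at p below 0.07 in all four prints; compounds were printed on slides so no solution concentration is given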;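 further: a binder raises fluorescence above local background on the spot; about 2 pmol printed per array spot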
# Target sequence (P47928 whole entry, looked up): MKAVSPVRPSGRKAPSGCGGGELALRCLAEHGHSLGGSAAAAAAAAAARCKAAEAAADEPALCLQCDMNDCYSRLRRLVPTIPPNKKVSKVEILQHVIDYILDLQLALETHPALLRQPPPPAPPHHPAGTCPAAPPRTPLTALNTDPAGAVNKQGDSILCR
# Calls only; i = inactive; · = no result given; + = active, no number. Only part of the results is shown (hit frequency here may not be typical).
structure,ID4 binder,Myc binder,mut p53 SMM,STAT3 binder
C[C@@H]1CCCCO[C@@H](CN(C)S(=O)(=O)c2cccs2)[C@@H](C)CN([C@@H](C)CO)C(=O)c2cc(NS(=O)(=O)c3cccs3)ccc2O1,i,i,i,i
NCCCCCCNC(=O)[C@@H]1C[C@@H]2C(=O)N[C@@H](Cc3ccccc3)C(=O)N2[C@@H]1c1ccc(O)cc1,+,i,i,i
O=C(Nc1ccccc1)C12CC1/C(=N\O)c1ccccc1O2 (stereo unspecified),i,i,i,i
C[C@H]1CCCCO[C@@H](CN(C)C)[C@@H](C)CN([C@@H](C)CO)C(=O)c2cc(NS(=O)(=O)c3cn(C)cn3)ccc2O1,i,i,i,i
C[C@H]1CCCCO[C@H](CN(C)Cc2ccccc2)[C@@H](C)CN([C@@H](C)CO)C(=O)c2cc(NC(=O)Nc3ccc4c(c3)OCO4)ccc2O1,i,i,i,i
C[C@H](CO)N1C[C@H](C)[C@H](CN(C)C(=O)CCCN(C)C)OCCCC[C@H](C)Oc2ccc(NS(=O)(=O)c3ccccc3)cc2C1=O,i,i,i,i
CCn1c(SCC(=O)Nc2ccccc2OC)nnc1-c1ccco1,i,i,i,i
C[C@@H]1CCCCO[C@@H](CN(C)C(=O)Nc2cccc3ccccc23)[C@@H](C)CN([C@@H](C)CO)C(=O)c2cc(N(C)C)ccc2O1,i,i,i,i
Cc1c(C)c2c(c(C)c1O)CCC(C)(C(=O)O)O2 (stereo unspecified),·,i,i,i
O=C(CSc1nnnn1-c1ccccc1)Nc1ccc(-c2nc3ccccc3s2)cc1,i,i,i,i
Cc1noc(C)c1NC(=O)N(C)C[C@H]1OCCCC[C@H](C)Oc2ccc(NS(=O)(=O)c3cccs3)cc2C(=O)N([C@H](C)CO)C[C@@H]1C,i,i,i,i
COc1ccccc1CN1C(=O)c2ccccc2[C@@]2(Cc3ccccc3N(CCN3CCOCC3)C2=O)[C@@H]1c1ccc(CO)cc1,i,i,i,i
Nc1cc(N)nc(SCC(=O)N(c2ccccc2)c2ccccc2)n1,i,i,i,i
C[C@H](CO)N1C[C@H](C)[C@@H](CN(C)C(=O)Nc2ccc(F)cc2)Oc2ccc(NC(=O)c3ccncc3)cc2C1=O,i,i,i,i
C=CCN1CCc2c(cc(O)c(O)c2Cl)C(c2ccccc2)C1 (stereo unspecified),i,i,i,i
CC(=O)N[C@H]1[C@H](O[C@H]2CC[C@@]3(C)C(CC[C@]4(C)C3CC=C3[C@@H]5CC(C)(C)CC[C@]5(C(=O)OC5OCC(O)C(O)C5O)C(O)C[C@]34C)C2(C)C)O[C@H](COC2OCC(O)C(OC3OCC(O)C(O)C3O)C2O)[C@@H](O[C@@H]2O[C@@H](C)[C@H](O)[C@@H](O)[C@H]2O[C@@H]2O[C@@H](C)[C@H](O)[C@@H](O)[C@H]2O)[C@@H]1O (stereo partly specified),i,i,i,i
C[C@@H]1CN([C@@H](C)CO)C(=O)c2cccc(NS(=O)(=O)c3ccccc3)c2O[C@H]1CN(C)C(=O)Nc1ccccc1,i,i,i,i
CN([NH2+][O-])c1cc(O)ccc1O,i,i,i,i
Nc1nc(NCCc2ccc(O)cc2)nc2nc(-c3ccco3)nn12,i,i,i,i
COc1ccc(S(=O)(=O)N(C)C[C@H]2OCCCC[C@@H](C)Oc3ccc(NS(=O)(=O)c4ccccc4)cc3C(=O)N([C@H](C)CO)C[C@@H]2C)cc1,·,i,i,i
CC(C)NC(=O)Nc1ccc2c(c1)C(=O)N([C@@H](C)CO)C[C@H](C)[C@@H](CN(C)C(=O)Nc1ccccc1)OCCCC[C@@H](C)O2,i,+,i,i
C[C@H]1CN([C@@H](C)CO)C(=O)Cc2cc(NC(=O)Cc3cn(C)c4ccccc34)ccc2O[C@@H]1CN(C)S(=O)(=O)c1cn(C)cn1,i,i,i,i
C[C@@H]1CN([C@@H](C)CO)C(=O)Cc2cc(NC(=O)C3CC3)ccc2O[C@H]1CN(C)Cc1ccc(Cl)c(Cl)c1,i,i,i,i
C[C@H](CO)N1C[C@H](C)[C@H](CN(C)C(=O)c2ccc(N3CCN(C)CC3)cc2)OCc2cn(nn2)CCCC1=O,i,i,i,i
CNC[C@H]1OCCCC[C@@H](C)Oc2ccc(NC(=O)Nc3c(C)noc3C)cc2C(=O)N([C@H](C)CO)C[C@@H]1C,·,i,i,i

# Among those listed so far, these have two or more sulfur atoms:
structure,ID4 binder,Myc binder,mut p53 SMM,STAT3 binder
C[C@@H]1CCCCO[C@@H](CN(C)S(=O)(=O)c2cccs2)[C@@H](C)CN([C@@H](C)CO)C(=O)c2cc(NS(=O)(=O)c3cccs3)ccc2O1,i,i,i,i
O=C(CSc1nnnn1-c1ccccc1)Nc1ccc(-c2nc3ccccc3s2)cc1,i,i,i,i
Cc1noc(C)c1NC(=O)N(C)C[C@H]1OCCCC[C@H](C)Oc2ccc(NS(=O)(=O)c3cccs3)cc2C(=O)N([C@H](C)CO)C[C@@H]1C,i,i,i,i
COc1ccc(S(=O)(=O)N(C)C[C@H]2OCCCC[C@@H](C)Oc3ccc(NS(=O)(=O)c4ccccc4)cc3C(=O)N([C@H](C)CO)C[C@@H]2C)cc1,·,i,i,i

# (next part)
structure,ID4 binder,Myc binder,mut p53 SMM,STAT3 binder
CC(C)NC(=O)Nc1cccc2c1O[C@@H](CN(C)Cc1ccc(Cl)c(Cl)c1)[C@H](C)CN([C@@H](C)CO)C2=O,i,i,i,i
COc1ccc(CN(C)C[C@H]2Oc3c(NC(=O)c4ccncc4)cccc3C(=O)N([C@@H](C)CO)C[C@@H]2C)cc1,i,i,i,i
COc1ccc(OC)c(NC(=O)c2ccc(CSc3nnc(C)s3)cc2)c1,i,i,i,i
C=CCn1c(SCC(=O)O)nnc1-c1cccc(C)c1,i,+,i,i
CCn1c(NCCCO)nc2ccccc21,i,i,i,i
C[C@@H]1CN([C@@H](C)CO)C(=O)c2cccc(NC(=O)C3CCOCC3)c2O[C@H]1CN(C)Cc1ccc(Oc2ccccc2)cc1,i,i,i,i
Cc1noc(C)c1S(=O)(=O)N(C)C[C@@H]1Oc2ccc(NC(=O)Nc3ccccc3)cc2CC(=O)N([C@H](C)CO)C[C@@H]1C,i,i,i,i
C#CCNC(=O)C1=C[C@H](c2csc3ccccc23)C[C@H](OCCCCO)O1,·,i,i,i
COc1ccc(F)cc1S(=O)(=O)Nc1cccc(S(=O)(=O)N2CC3(C)CC2CC(C)(C)C3)c1 (stereo unspecified),i,i,i,i
CS(=O)(=O)c1ccc(-c2cc(Br)sc2-c2ccc(F)cc2)cc1,i,i,i,i
CS(=O)(=O)N(CC(=O)Nc1cccc([N+](=O)[O-])c1)c1ccc2c3c(cccc13)CC2,i,i,i,i
O=C(Nc1ccccc1C(=O)NCc1cccnc1)c1ccc(Cl)cc1Cl,i,i,i,i
C[C@@H]1CCCCO[C@H](CN(C)C)[C@@H](C)CN([C@@H](C)CO)C(=O)c2cc(NS(=O)(=O)c3cccs3)ccc2O1,i,i,i,i
CC(C)=CCCC(C)(OC1OC(COC2OC(CO)C(O)C2O)C(O)C(O)C1O)C1CCC2(C)C1C(O)CC1C3(C)CCC(OC4OC(CO)C(O)C(O)C4OC4OC(CO)C(O)C(O)C4O)C(C)(C)C3CCC12C (stereo unspecified),i,i,i,i
COc1ccc(S(=O)(=O)N(C)C[C@@H]2Oc3c(NS(C)(=O)=O)cccc3C(=O)N([C@H](C)CO)C[C@H]2C)cc1,i,i,i,i
Cc1noc(C)c1S(=O)(=O)Nc1ccc2c(c1)C(=O)N([C@@H](C)CO)C[C@@H](C)[C@@H](CN(C)C(=O)c1ccncc1)OCCCC[C@@H](C)O2,i,i,i,i
c1cc(-c2cnn3cc(-c4ccc(OCCN5CCCCC5)cc4)cnc23)ccn1,+,i,i,i
CC(C)(C)[C@H]1C=C(C(=O)O)O[C@@H](OCc2ccc(CO)cc2)C1,i,i,i,i
C[C@H](CO)N1C[C@H](C)[C@H](CN(C)C)Oc2ccc(NC(=O)NC3CCCCC3)cc2C1=O,i,i,i,i
COCCCNC(=O)c1cc(-c2ccccn2)nc2ccc(Br)cc12,i,i,i,i
CCCC(O)C#Cc1cnc2c(c1)C(=O)N([C@H](C)CO)C[C@H](C)[C@H](CN(C)S(=O)(=O)c1cccc(F)c1)O2 (stereo partly specified),·,i,i,i
Cc1ccccc1NC(=O)CCCC(=O)O,i,i,i,i
CC1(C)C=Cc2c(c(CCO)c3occ(-c4ccc(O)c(O)c4)c(=O)c3c2O)O1,i,i,i,i
COc1ccc(CN(C)C[C@H]2Oc3ccc(NS(=O)(=O)c4ccc(OC)cc4)cc3C(=O)N([C@H](C)CO)C[C@@H]2C)cc1,i,i,i,i
C[C@@H]1CN([C@@H](C)CO)C(=O)c2cc(NC(=O)C3CC3)ccc2O[C@H]1CN(C)Cc1ccncc1,i,i,i,i

# Following part.
structure,ID4 binder,Myc binder,mut p53 SMM,STAT3 binder
COc1ccc(NC(=O)CCC(=O)c2ccc(-c3ccccc3)cc2)cc1,i,i,i,i
CCOC(=O)c1sc(NC(=O)CSc2ccccn2)c(C#N)c1C,i,i,i,i
CC(=O)OCC1=CCCC2[C@@]1(C)CC[C@@H](C)[C@]2(C)CCC(C)CC(=O)O (stereo partly specified),i,i,i,i
Cc1cc(C(=O)Nc2cccc3c2O[C@H](CN(C)CC2CC2)[C@@H](C)CN([C@@H](C)CO)C3=O)n(C)n1,i,i,i,i
CC1CC(=O)C2=C(CCC34OC23C(=O)c2cccc(O)c2C4O)C1 (stereo unspecified),i,i,i,i
C[C@H](CO)N1C[C@H](C)[C@H](CN(C)Cc2ccc(Cl)c(Cl)c2)Oc2ccc(NC(=O)C3CC3)cc2C1=O,i,i,i,i
COc1ccc2c(c1)OC(C(=O)c1ccccc1)C2=O (stereo unspecified),i,i,i,i
Cc1ccc(S(=O)(=O)Nc2ccc3c(c2)C(=O)N([C@@H](C)CO)C[C@@H](C)[C@H](CN(C)C(=O)c2ccncc2)OCCCC[C@H](C)O3)cc1,·,i,i,i
C[C@H](CO)N1C[C@H](C)[C@@H](CN(C)C(=O)CCC(F)(F)F)OCCCC[C@H](C)Oc2ccc(NC(=O)Cc3ccccc3)cc2C1=O,i,i,i,i
C[C@H]1CN([C@@H](C)CO)C(=O)CCCn2cc(nn2)CO[C@H]1CN(C)C,i,i,i,i
Cc1c(CC(C)(C)C(=O)O)n(Cc2ccc(Cl)cc2)c2ccc(F)cc12,i,i,i,i
C[C@@H]1CCCCO[C@H](CN(C)Cc2ccc(C(=O)O)cc2)[C@@H](C)CN([C@H](C)CO)C(=O)c2cc(NC(=O)Nc3ccc(F)cc3)ccc2O1,i,i,i,i
C[C@@H]1CN([C@H](C)CO)C(=O)c2cc(NC(=O)c3ccncc3)ccc2O[C@@H]1CN(C)C(=O)NC1CCCCC1,i,i,i,i
CC(C)(C)NC(=O)CN(c1ccc2c3c(cccc13)CC2)S(C)(=O)=O,i,i,i,i
C[C@H](CO)N1C[C@H](C)[C@@H](CN(C)C(=O)Nc2ccc(C(F)(F)F)cc2)Oc2ccc(NS(=O)(=O)c3ccccc3)cc2CC1=O,·,i,i,i
Cc1noc(C)c1S(=O)(=O)Nc1ccc2c(c1)C(=O)N([C@@H](C)CO)C[C@H](C)[C@@H](CN(C)C(=O)c1ccncc1)OCCCC[C@H](C)O2,i,i,i,i
C[C@H](CO)N1C[C@H](C)[C@H](CN(C)Cc2ccc(F)cc2)Oc2ncccc2C1=O,i,i,i,i
COc1ccc(S(=O)(=O)N(C)C[C@H]2OCCCC[C@@H](C)Oc3ccc(NS(=O)(=O)c4c(C)noc4C)cc3C(=O)N([C@H](C)CO)C[C@H]2C)cc1,·,i,i,i
C[C@H](CO)N1C[C@H](C)[C@H](CN(C)S(=O)(=O)c2ccccc2)Oc2ccc(NC(=O)Cn3cnnn3)cc2CC1=O,i,i,i,i
Cc1noc(C)c1NC(=O)N(C)C[C@@H]1OCCCC[C@@H](C)Oc2ccc(NS(C)(=O)=O)cc2C(=O)N([C@H](C)CO)C[C@@H]1C,i,i,i,i
C[C@@H]1CN([C@H](C)CO)C(=O)c2cccc(NS(=O)(=O)c3cn(C)cn3)c2O[C@@H]1CN(C)C(=O)Nc1ccc(C(F)(F)F)cc1,i,i,i,i
COc1ccc(CN(C)C[C@@H]2Oc3ccc(NC(=O)Nc4c(C)noc4C)cc3CC(=O)N([C@H](C)CO)C[C@H]2C)cc1,i,i,i,i
CC(C)(C)[C@H]1C=C(C(=O)N2CCN(Cc3ccc4c(c3)OCO4)CC2)O[C@@H](OCCCCO)C1,·,i,i,i
CNC[C@@H]1Oc2ccc(NC(=O)Nc3cccc4ccccc34)cc2CC(=O)N([C@@H](C)CO)C[C@@H]1C,i,i,i,i
C[C@H]1CN([C@@H](C)CO)C(=O)Cc2cc(NC(=O)Nc3ccc(F)cc3)ccc2O[C@H]1CN(C)Cc1ccc(C(=O)O)cc1,i,i,i,i
COc1ccc([Si](C)(C)[C@@H]2[C@@H](CCO)O[C@]3(C(=O)N(C)c4ccccc43)[C@H]2C)cc1,·,i,i,i
